VDR inhibitor – Inhibitors of the vitamin D receptor (VDR): qHTS; VDR-SRC2-3 peptide fluorescence polarization, 2 h; AID 504847, 2011; 0.93% of 400,000 active; Vitamin D3 receptor (Homo sapiens), P11473; Potency, µM, for the others: max response, negative = inhibition, actives largely listed as inhibitors; active = well fitted inhibition curve with a large enough effect; inconclusive = small, poorly fitted or top-dose-only effect, or another doubt; inactive = no such curve, though single readings can be large or run the other way; note: series mostly up to about 120 µM
Target sequence (P11473 whole entry, looked up): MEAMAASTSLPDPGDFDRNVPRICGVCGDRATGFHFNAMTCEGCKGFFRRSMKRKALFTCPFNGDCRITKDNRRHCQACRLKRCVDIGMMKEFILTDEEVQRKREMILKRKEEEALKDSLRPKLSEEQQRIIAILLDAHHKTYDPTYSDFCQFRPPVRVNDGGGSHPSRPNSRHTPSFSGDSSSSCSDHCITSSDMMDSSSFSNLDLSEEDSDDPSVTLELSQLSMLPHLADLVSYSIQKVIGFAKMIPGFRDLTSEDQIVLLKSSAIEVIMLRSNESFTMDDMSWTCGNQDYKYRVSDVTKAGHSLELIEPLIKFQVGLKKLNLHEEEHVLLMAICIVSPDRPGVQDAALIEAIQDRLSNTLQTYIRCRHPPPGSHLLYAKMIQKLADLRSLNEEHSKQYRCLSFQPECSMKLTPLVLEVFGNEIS
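VDR–SRC2-3 interaction, FP format. Cmpds 23 nl via pintool, brief spin, 2 h ambient incubation.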
An asterisk follows results filed as active; & = joins results of further samples; [ ] = another dose, or the depositor's remark. % is set by controls: 0 for no effect and ±100 for the full control effect; potency is the fitted concentration of half-maximal effect. An excerpt; count on the stated rates, not on these rows.

`CCc1cccc(NC(=O)C2CC2c2ccccc2)c1` (stereo not drawn) gave VDR inhibitor -8%.
`Cc1ccc(/C=N/N2C(=O)c3ccccc3NC2c2ccc(C)cc2)cc1` (stereo not drawn) gave VDR inhibitor -6%.
Screening CC(C)C[C@H](NC(=O)c1nc[nH]c1C(=O)NC1CCNCC1)C(=O)OCc1ccccc1 returned VDR inhibitor -10%.
Screening COc1ccc2c(c1)OCC(Cc1ccc(OC)c(O)c1)C2=O (stereo not drawn) returned VDR inhibitor 1%.
Screening CCC(=O)Nc1ccc(NC(=O)c2ccc3c(c2)OCO3)cc1 returned VDR inhibitor 4%.
CCCn1c2ccccc2c2nnc(SCc3[nH]c(=O)[nH]c3C(=O)CCCCC(=O)OCC)nc21 was read as VDR inhibitor -5%.
Screening COc1ccc(NC(=O)COC(=O)C23CC4CC(CC(Cl)(C4)C2)C3)c(OC)c1 returned VDR inhibitor -4%.
CCOC(=O)c1[nH]c2ccc(OC)cc2c1NC(=O)c1ccc2c(c1)OCO2 was read as VDR inhibitor 10%.
Screening CN(C1=NC(=O)C(CC(=O)Nc2ccc(Br)cc2)S1)c1ccc(O)cc1 (stereo not drawn) returned VDR inhibitor 8%.
For O=C(NC1CCN(c2ncccn2)CC1)c1ccccc1F the results were VDR inhibitor 3%.
Screening CC1=C(C(=O)Nc2ccccc2)C(c2ccc(C)o2)N2C(=O)CSC2=N1 (stereo not drawn) returned VDR inhibitor 7%.
COc1cccc(-c2nn(-c3ccc(C)cc3)cc2C(=O)N2CCN(C3CCS(=O)(=O)C3)CC2)c1 (stereo not drawn) was read as VDR inhibitor 4%.
Screening COc1ccc2c(c1)c(CCN1C(=O)c3ccccc3C1=O)cn2C(=O)c1ccco1 returned VDR inhibitor 12%.
O=C(Nc1c(Br)cc2c(c1Br)Cc1ccccc1-2)C(Cl)Cl was read as VDR inhibitor 3%.
For Cc1oc(-c2cccs2)nc1CN1CCN(Cc2ccc(F)c(F)c2)C(CCO)C1 (stereo not drawn) the results were VDR inhibitor -24%.
Screening COc1cccc(CN2CCC(C(=O)N3CCC(C)CC3)CC2)c1 returned VDR inhibitor 2%.
OCC(CO)(CO)NCc1ccc(-c2ccccc2)cc1 was read as VDR inhibitor -8%.
For COc1ccc2c(c1)C(=O)[C@@H](OC(=O)NC1CCCC1)[C@H](c1ccc(OC)c(Br)c1)O2 the results were VDR inhibitor -9%.
Screening O=c1c(-c2ccc(F)cc2)nc2cnc(Oc3cccc(Cl)c3)nc2n1C[C@H]1CCCO1 returned VDR inhibitor -7%.
For COC(=O)CNc1nc(OC)nc(N(C)C)n1 the results were VDR inhibitor 11%.
Screening FC(F)(F)c1ccc2c(c1)n(Cc1ccccc1)c1[n+]2CCCCC1 returned VDR inhibitor -12%.
For Cc1ccc(S(=O)(=O)N(C)Cc2ccc(C(=O)N/N=C3\CCCC(=O)C3)cc2)cc1 the results were VDR inhibitor 0%.
Screening CCOC(=O)C1CCN(C(=O)C2CC(=O)N(c3ccc4c(c3)OCCO4)C2)CC1 (stereo not drawn) returned VDR inhibitor 3%.
COc1cc(-c2nc(=S)[nH][nH]2)cc(OC)c1OC was read as VDR inhibitor 50µM*.
`O=C(Nc1cc(Cl)ccc1Cl)c1ccco1` gave VDR inhibitor -6%.
`Cc1ccc2nc(Cl)c(/C=N/Nc3ccc(C(=O)O)cc3)cc2c1` gave VDR inhibitor -22%.
For O=C(/C=C/c1ccccc1)N1CCN(c2ccccn2)CC1 the results were VDR inhibitor 8%.
`CCn1nccc1C(=O)Nc1ccccc1OC` gave VDR inhibitor -1%.
Screening CCC1CCCCN1C(=O)CCNC(=O)Cn1cnc2ccccc2c1=O (stereo not drawn) returned VDR inhibitor 0%.
For Cc1cccc(OCC(=O)Nc2nnc(S(=O)(=O)N3CCC(C)CC3)s2)c1 the results were VDR inhibitor -1%.

Ordered by SMILES length (descending): 3 of the compounds above.
For Cc1ccc(S(=O)(=O)N(C)Cc2ccc(C(=O)N/N=C3\CCCC(=O)C3)cc2)cc1 the results were VDR inhibitor 0%.
For Cc1cccc(OCC(=O)Nc2nnc(S(=O)(=O)N3CCC(C)CC3)s2)c1 the results were VDR inhibitor -1%.
COc1cc(-c2nc(=S)[nH][nH]2)cc(OC)c1OC was read as VDR inhibitor 50µM*.

(further entries)
`Cc1ccc(S(=O)(=O)N2CCCc3cc(NS(=O)(=O)c4ccccc4)ccc32)cc1` gave VDR inhibitor 3%.
COc1ccc(CCCNC(=O)C2CCC(=O)N(CCCN3CCCC3=O)C2)cc1 (stereo not drawn) was read as VDR inhibitor -16%.
Cc1nc(-c2nc(-c3c(C(=O)NNC(=O)Nc4ccccc4)noc3C)cs2)cs1 was read as VDR inhibitor 6%.
Screening CCc1nc(N[C@H](C(=O)O)C(C)CC)c2oc3ccccc3c2n1 (stereo partly drawn) returned VDR inhibitor 7%.
For Cc1nc2cc(S(=O)(=O)C(F)(F)F)ccc2s1 the results were VDR inhibitor -8%.
Screening CC(C)(C)OC(=O)N1CCC(C(=O)Nc2cccc(C(=O)NCCc3ccccc3)c2)CC1 returned VDR inhibitor 4%.
`COCCCNC(=O)Cn1nnc(-c2ccc(NC(=O)c3ccc(F)cc3)cc2)n1` gave VDR inhibitor 13%.
O=C(NCc1cccnc1)c1noc2c1CCCC2 was read as VDR inhibitor 13%.
CCCCNc1c2c(nc3c(-c4ccccc4)c(C)nn13)CCC2 was read as VDR inhibitor 5%.
For O=C(CCc1ccc(O)cc1)c1c(O)cc(O)cc1O[C@H]1OC(CO)C(O)C(O)C1O (stereo partly drawn) the results were VDR inhibitor -7%.
Screening CC1=C(C(=O)OCc2ccc3c(c2)OCO3)C(c2ccc(O)c([N+](=O)[O-])c2)NC(=O)N1 (stereo not drawn) returned VDR inhibitor -6%.
For N#C/C(=C(/O)CSc1n[nH]c(N)n1)c1nc2ccccc2[nH]1 the results were VDR inhibitor 4%.
For Cc1ccccc1NC(=O)Nc1cc(S(N)(=O)=O)ccc1C the results were VDR inhibitor -8%.
CCC(C)(C)NC(=O)c1cc([N+](=O)[O-])ccc1N1CCOCC1 was read as VDR inhibitor -9%.
COC(=O)c1ccccc1OCCOCCOc1cccc2cccnc12 was read as VDR inhibitor inconclusive.
`COc1ccc(N2CCN(C(=O)c3ccc(Oc4ccc(C(F)(F)F)cn4)cc3)CC2)cc1` gave VDR inhibitor -5%.
Screening Cc1ccc(S(=O)(=O)N2CCN(C(=O)COC(=O)/C=C/c3ccccc3F)CC2)c(C)c1 returned VDR inhibitor 9%.
Screening CC(C)(C)c1cc(C(C)(C)C)c2oc(=O)c(-c3nc4ccc(C(=O)O)cc4[nH]3)cc2c1 returned VDR inhibitor -8%.
`COc1ccc(CNc2ncnc3sccc23)cc1` gave VDR inhibitor 0%.
`O=C(NC(Cc1ccccc1)C(=O)O)c1ccc(S(=O)(=O)N2CCOCC2)cc1` (stereo not drawn) gave VDR inhibitor 1%.
Cc1nc(NC(=O)c2ccc(Br)s2)sc1C(=O)N(C)C was read as VDR inhibitor 0%.
`CC(=O)NC1CC2CCCC(C1)N2Cc1ccc(C)cc1` (stereo not drawn) gave VDR inhibitor 2%.
Screening N#Cc1ccc(CN2CCN(C(=O)c3cccc(S(=O)(=O)N4CCCCCC4)c3)CC2)cc1 returned VDR inhibitor -22%.
For COc1cc(C(=O)NNC(=O)c2ccc(S(=O)(=O)N3CCCCC3)cc2)cc(OC)c1OC the results were VDR inhibitor -11%.
`Cc1ccc(CC(=O)O/N=C(\N)c2ccccn2)cc1` gave VDR inhibitor -5%.
`COc1cc(C(=O)OCC(=O)NCCC2=CCCCC2)ccc1OCC(C)C` gave VDR inhibitor 0%.
CC1(c2nnc(Cc3ccccc3)o2)CC(c2ccccc2Br)=NO1 (stereo not drawn) was read as VDR inhibitor -3%.
Nc1nc(-c2ccccc2)nn1S(=O)(=O)c1ccccc1 was read as VDR inhibitor -10%.
`Cc1ccc(Cc2nnc(SCC(=O)Nc3c(C)cccc3C)[nH]c2=O)cc1` gave VDR inhibitor -15%.
Screening CCCCn1c(N)c(N(CC(C)C)C(=O)C(C)SCc2nc3sc(C)c(C)c3c(=O)[nH]2)c(=O)[nH]c1=O (stereo not drawn) returned VDR inhibitor 6%.

Reprinted at random: 5 compounds from above, in no set order.
`COCCCNC(=O)Cn1nnc(-c2ccc(NC(=O)c3ccc(F)cc3)cc2)n1` gave VDR inhibitor 13%.
`O=C(NC(Cc1ccccc1)C(=O)O)c1ccc(S(=O)(=O)N2CCOCC2)cc1` (stereo not drawn) gave VDR inhibitor 1%.
CCCCNc1c2c(nc3c(-c4ccccc4)c(C)nn13)CCC2 was read as VDR inhibitor 5%.
Screening O=c1c(-c2ccc(F)cc2)nc2cnc(Oc3cccc(Cl)c3)nc2n1C[C@H]1CCCO1 returned VDR inhibitor -7%.
Screening CC1=C(C(=O)Nc2ccccc2)C(c2ccc(C)o2)N2C(=O)CSC2=N1 (stereo not drawn) returned VDR inhibitor 7%.

Remaining list, next part:
C=CCN=c1scc(-c2ccc(F)cc2)n1/N=C/c1ccccn1 was read as VDR inhibitor -5%.
Cc1cc(C(=O)c2ccc(Cl)cc2)c(NC(=O)CCl)s1 was read as VDR inhibitor -15%.
`COc1ccccc1NC(=O)[C@H](COCc1ccccc1)NC(=O)OC(C)(C)C` gave VDR inhibitor 7%.
`Cc1cccc(CSC2=NN3CCCC(=O)N=C3S2)c1` gave VDR inhibitor -4%.
For CCc1ccc(NC(=O)Cn2c(=O)n(CCCC(=O)NCc3ccccc3OC)c(=O)c3ccccc32)cc1 the results were VDR inhibitor 2%.
Screening CN(C)CCCCOc1ccccc1F returned VDR inhibitor -4%.
Screening COc1ccc(OC)c(NC(=O)CSc2nnc(N)s2)c1 returned VDR inhibitor 7%.
For CCCc1nc(SCC(N)=O)[nH]c(=O)c1CC the results were VDR inhibitor 1%.
CN1C(C(=O)NCc2ccc(OC(F)(F)F)cc2)CC2Cn3c(nc4cc5ccccc5cc43)C21 (stereo not drawn) was read as VDR inhibitor 20%.
Screening Cc1ccc(N(C(=O)c2csnn2)C(C(=O)NC2CCCCC2)c2cccnc2)c(C)c1 (stereo not drawn) returned VDR inhibitor -6%.
For Cc1ccc(Nc2nnc(SCC(=O)NCCN3C(=O)CSC3=O)s2)cc1 the results were VDR inhibitor -5%.
For CN(CC(O)CN1CCOCC1)S(=O)(=O)O (stereo not drawn) the results were VDR inhibitor 8%&10%.
Screening CCc1ccccc1NC(=O)Cn1c(=O)n(Cc2ccccc2)c(=O)c2c(C)c(C(=O)N(C)C)sc21 returned VDR inhibitor 3%.
For CCOc1ccccc1NC(=O)CSc1nc2c(sc3ccccc32)c(=O)n1CCCC(=O)NC1CCCC1 the results were VDR inhibitor 0%.
`CCc1sc(C(=O)Nc2ccc(F)cc2C)cc1C` gave VDR inhibitor -9%.
Screening COc1ccc(NC(=O)CN(c2ccc([N+](=O)[O-])cc2)S(=O)(=O)c2ccccc2)c(OC)c1 returned VDR inhibitor -12%.
`CCOc1cc2c(C#N)c(N(CC)CC)nc(N)c2c(N)n1` gave VDR inhibitor 45µM*.
For CCOC(=O)c1c(NC(=O)CSc2cn(CCNC(=O)c3ccccc3OC)c3ccccc23)sc2c1CCCC2 the results were VDR inhibitor 15%.
`Cc1ccc(-c2nc(C)sc2CC(=O)NCc2ccco2)cc1` gave VDR inhibitor -19%.
COC(=O)c1c(N)sc(C(=O)N2CCOCC2)c1C was read as VDR inhibitor 0%.
Screening CC(C)S(=O)(=O)C/C(N)=N/OS(=O)(=O)c1ccc(Cl)cc1 returned VDR inhibitor -10%.
For COc1cccc(NC(=O)CSCc2cc(=O)n3nc(C4CC4)sc3n2)c1 the results were VDR inhibitor -13%.
For CCn1c(=O)c(=O)[nH]c2cc(C(=O)NCC3CCCCC3)ccc21 the results were VDR inhibitor -19%.
For CCn1cc2nc(SCC(=O)Nc3ccc(OC)c(OC)c3)n(Cc3ccc(OC)cc3)c(=O)c2n1 the results were VDR inhibitor -6%.
CCC(CC)N1CCN(CCc2ccccc2)C(CCO)C1 (stereo not drawn) was read as VDR inhibitor -11%.
Screening CCOc1ccccc1NC(=O)C(CC(C)C)NC(=O)C1CCC(C)CC1 (stereo not drawn) returned VDR inhibitor 1%&18%.
For CC(=O)Nc1ccc(S(=O)(=O)N2CCN3CCCC3C2)cc1 (stereo not drawn) the results were VDR inhibitor -7%.
For Cc1cc(C)nc(SCc2nnc(SCC(=O)Nc3c(C)cccc3C)o2)n1 the results were VDR inhibitor -12%.
`CCN1CCCc2cc(CN(CCN3CCOCC3)C(=S)Nc3ccccc3OC)ccc21` gave VDR inhibitor -7%.
For CCOC(=O)c1c(C)oc2nc(C)nc(N3CCN(c4ccc(C)cc4C)CC3)c12 the results were VDR inhibitor 19%.
Screening CCOC(=O)C1=C(NC#N)OC(C)=C(C)C1c1ccc(O)cc1 (stereo not drawn) returned VDR inhibitor -4%.
For Cc1cc(C)n2nc(C(=O)NCc3ccccc3)nc2n1 the results were VDR inhibitor 1%.
Screening O=C(C[C@H]1C/C=C\C[C@@H](Cc2ccc(F)cc2)C(=O)O[C@@H](c2ccccc2)CNC1=O)N[C@@H](CO)Cc1ccccc1 returned VDR inhibitor -11%.
Screening CCC(C)N(C(=O)C(F)(F)F)C(C(=O)NC1CCCCC1)c1ccncc1 (stereo not drawn) returned VDR inhibitor -1%.
Cc1ccc(C)c(OCC(O)CN2CCN(CCN3C(=O)c4cccc5cccc(c45)C3=O)CC2)c1 (stereo not drawn) was read as VDR inhibitor -5%.
Screening Cc1oc(-c2ccc(Cl)cc2)nc1CN1CCCC(C(=O)NCc2ccc(Cl)cc2)C1 (stereo not drawn) returned VDR inhibitor -25%.
Screening CCc1ccc(NC(=O)CSc2n[nH]c(C)c2[N+](=O)[O-])cc1 returned VDR inhibitor -7%.
`COc1ccccc1-c1c(C)nn2c(-c3ccccc3)cc(C)nc12` gave VDR inhibitor 38%[activator].

Assay outcomes deposited in PubChem by National Center for Advancing Translational Sciences (NCATS).
